High-throughput results deposited in PubChem by Johns Hopkins Ion Channel Center.
KCNQ2 enhance: KCNQ2 (rat) channel potentiation. O88943. B-score at 10 µM. CHO-K1 KCNQ2, FluxOR thallium flux fluorescence; hits give high values. actives 0.54% (n = 310,000);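 active = fluorescence ratio B-score at least 3 SD of library B-scores, with initial fluorescence B-score within 3 SD, cut at about 5.3 in these data; same plate scores as AID 2156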;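 note: B-score of peak minus minimum over baseline fluorescence ratio after K+ and Tl+ stimulus; positive B-score means potentiation of KCNQ2 with more thallium influx and brighter signal; only the inactives scoring about 0 or higher are listed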
Target sequence (O88943 whole entry, looked up): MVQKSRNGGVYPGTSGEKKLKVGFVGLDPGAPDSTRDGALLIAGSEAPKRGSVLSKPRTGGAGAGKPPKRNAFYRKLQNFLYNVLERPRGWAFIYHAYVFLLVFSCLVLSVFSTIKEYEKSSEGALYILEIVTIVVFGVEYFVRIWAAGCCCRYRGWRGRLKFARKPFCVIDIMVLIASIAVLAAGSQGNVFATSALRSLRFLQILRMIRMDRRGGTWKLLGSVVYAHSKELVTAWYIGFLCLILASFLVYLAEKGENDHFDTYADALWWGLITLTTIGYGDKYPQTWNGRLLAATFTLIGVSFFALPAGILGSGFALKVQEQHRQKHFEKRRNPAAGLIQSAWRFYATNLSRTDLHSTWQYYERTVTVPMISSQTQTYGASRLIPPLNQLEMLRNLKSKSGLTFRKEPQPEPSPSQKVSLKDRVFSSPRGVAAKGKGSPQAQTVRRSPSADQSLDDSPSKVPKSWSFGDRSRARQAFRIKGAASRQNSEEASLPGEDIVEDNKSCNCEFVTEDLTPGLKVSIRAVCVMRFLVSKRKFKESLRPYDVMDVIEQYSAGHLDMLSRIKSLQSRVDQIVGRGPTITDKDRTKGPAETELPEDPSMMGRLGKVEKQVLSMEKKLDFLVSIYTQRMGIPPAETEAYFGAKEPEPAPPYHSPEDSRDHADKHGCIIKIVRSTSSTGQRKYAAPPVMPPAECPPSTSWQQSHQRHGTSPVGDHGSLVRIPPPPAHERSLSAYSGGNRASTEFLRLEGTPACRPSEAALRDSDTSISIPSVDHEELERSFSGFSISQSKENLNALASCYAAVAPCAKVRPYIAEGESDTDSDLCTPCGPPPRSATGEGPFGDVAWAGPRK
KCNQ2 enhance baseline: also measured in KCNQ2 enhance; calls as there; B-score; compound at 10 µM; measured here: initial fluorescence intensity artifact check;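 brightness before thallium and not channel activity; 0 = typical well and far values either way flag optical interference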
Starred values were filed as active, the others as inactive. These rows are one share of the data; the hit share may differ from the screen's.

SMILES,KCNQ2 enhance baseline,KCNQ2 enhance
COC(=O)CSc1nnc(-c2cccnc2)n1-c1cc(OC)cc(OC)c1,-2.4,0.41
O/N=C1/C2C3C(Br)C4C5CC(C1C53)C24 (centres undefined),0,1.3
Cn1c(CNC(=O)c2ccc(Cl)cc2)nnc1SCC(=O)NC1=NCCS1,0.89,0.91
CN1C(=O)/C(=C/c2ccc(OCc3ccc(F)cc3)cc2)NC1=S,0.76,0.06
O=C(CSc1nccn1-c1ccc(Cl)cc1)Nc1ccc2c(c1)OCO2,-0.73,0.21
CC(=O)c1cnc2n(c1=O)CCS2,0.31,0.54
C#CCNC(=O)C1=C[C@H](c2ccc(C#C)cc2)C[C@H](OCc2ccc(CO)cc2)O1,-0.49,0.14
Cc1cc(=O)n2nc(N3CCCC3C(=O)Nc3cccc(Cl)c3C)sc2n1 (centres undefined),-1.1,0.11
Cc1cc2c(c(=O)n1C1CC1)C(c1cccc(Cl)c1)C(C#N)=C(N)O2 (centres undefined),-1.9,0.02
COCCCNC(=O)c1ccc2c(=O)n(CC3CCCO3)c(=S)[nH]c2c1 (centres undefined),1.6,1.1
COc1ccc(OC)c(NC(=O)CSc2nc3scc(C)c3c(=O)[nH]2)c1,-0.87,1.9
O=C(Nc1ccc(-n2cnnn2)cc1)C1CCCN1C(=O)Nc1ccc(Br)cc1 (centres undefined),1.4,0.04
CCOc1ccc(NS(=O)(=O)c2ccc(C(=O)NCCCN3CCOCC3)cc2)cc1,-0.03,0.03
CN(CC(=O)Nc1c(Cl)cccc1Cl)C(=O)CCNS(=O)(=O)c1ccccc1C(F)(F)F,1.4,0.31
CC(=O)c1oc2ccccc2c1N,0.6,1.7
CCOC(=O)C1=C(C)N=c2s/c(=C\c3ccc(OC(C)=O)cc3)c(=O)n2C1/C=C/c1ccccc1 (centres undefined),-0.77,2.3
CC(Sc1ccc(Cl)cc1)C(=O)Nc1ccc2c(c1)OCO2 (centres undefined),-1.7,0.31
NC(=O)c1ccc(NC(=O)C2CC2)cc1,0.18,0.29
CCOCCCNC(=O)c1cc2c(-c3ccc(Cl)cc3)nn(C)c2s1,0.34,0.84
CCOCCCNC(=O)CCC(=O)NNc1nc2ccccc2c2nc(-c3ccccc3)nn12,1.4,0.63
Cc1cc(C(=O)NCc2ccc3c(c2)OCO3)ccc1[N+](=O)[O-],-0.09,3.6
CC(=O)c1ccc(NC(=O)CSc2nc(N3CCOCC3)nc(N3CCOCC3)n2)cc1,2,0.04
FC(F)(F)c1cc(Oc2ccccc2)nc(-c2ccccn2)n1,0.62,0.33
CSc1nc2[nH]c3c(c2c2ncnn12)CCCC3,-1,2.5

Next part; it opens with the three that closed the last part.
SMILES,KCNQ2 enhance baseline,KCNQ2 enhance
CC(=O)c1ccc(NC(=O)CSc2nc(N3CCOCC3)nc(N3CCOCC3)n2)cc1,2,0.04
FC(F)(F)c1cc(Oc2ccccc2)nc(-c2ccccn2)n1,0.62,0.33
CSc1nc2[nH]c3c(c2c2ncnn12)CCCC3,-1,2.5
S=c1[nH]nc(-c2ccc(Cl)cc2)n1/N=C/C=C/c1ccco1,-1.4,1.9
CC(C)Cc1nnc(NC(=O)CCC(=O)N2CCN(c3ccc(F)cc3)CC2)s1,0.51,0.89
O=C(CCc1c[nH]c2ccccc12)N/N=C/c1ccc2c(c1)OCO2,0.03,0.29
O=C1C2C3C=CC(C3)C2C(=O)N1c1ccccc1 (centres undefined),0.62,1.2
Cc1cc(C)c(-c2c(O)c3cccc4c3n(c2=O)CCC4)c(C)c1,-1.3,0.31
Cc1cc(=O)n2nc(-c3ccc(C(F)(F)F)cc3)sc2n1,-0.01,0.08
Cc1ccc(C(C(=O)NCC2CCCO2)N(Cc2ccccc2F)C(=O)Cn2nnc(-c3cccs3)n2)cc1 (centres undefined),-2.7,1.2
CCCCNC(=O)Cc1cc(=O)[nH]c(=O)[nH]1,1.8,0.3

Some of these compounds in order of their number in KCNQ2 enhance, ascending:
SMILES,KCNQ2 enhance baseline,KCNQ2 enhance
O=C(CCc1c[nH]c2ccccc12)N/N=C/c1ccc2c(c1)OCO2,0.03,0.29
CCCCNC(=O)Cc1cc(=O)[nH]c(=O)[nH]1,1.8,0.3
CC(C)Cc1nnc(NC(=O)CCC(=O)N2CCN(c3ccc(F)cc3)CC2)s1,0.51,0.89

(listing goes on)
SMILES,KCNQ2 enhance baseline,KCNQ2 enhance
COc1ccc(C(=O)OCC(=O)Nc2ccc(OC(F)F)cc2)c(OC)c1,-0.19,0.04
COc1ccc(NC(=O)N2CCc3ccccc3C2)c(OC)c1,-1.6,0.24
O=C(CN(c1cccc(C(F)(F)F)c1)S(=O)(=O)c1ccccc1)N1CCOCC1,-1.2,1.4
O=C(Cn1nnc(-c2ccccc2Cl)n1)N1CCN(S(=O)(=O)c2ccc(Cl)cc2)CC1,-0.13,1.4
CC(CC(=O)Nc1ccc(S(=O)(=O)N2CCOCC2)cc1)c1ccccc1 (centres undefined),0.82,0.68
Cc1ccc2c(c1)cc1c(=O)n(CC(=O)NCCN3CCCC3)nc(C)n12,0.54,1.4
Cc1cccc(C(=O)OC(C)CN2CCOCC2)c1 (centres undefined),-0.29,0.12
Cc1cc(C(=O)NNC(=S)NCC(C)C)cs1,-0.04,0.02
C=CCNC(=O)COC(=O)c1nc2nccc(C)n2n1,1.2,0.32
O=C(O)c1ccc(COc2ccc3c(c2)CCC3)cc1,-0.35,2.5
NC(=O)c1cc(C(=O)c2ccc(Cl)cc2)c[nH]1,0.91,1.5
CCCCC(=O)Nc1ccc2oc(-c3cccnc3)nc2c1,0.37,0.26
Cc1ccc(-c2c[n+](Cc3ccc(Cl)c(Cl)c3)c3n2CCC3)cc1,0,0.83
O=S(=O)(c1ccc2c(c1)OCCO2)N1CCN(Cc2ccccc2)CC1,-0.93,0.47
COc1cc(OC)cc(C(=O)NNC(=S)NC(=O)c2cccnc2)c1,3.8,1.7
O=C(NCCN1CCOCC1)c1cccc(Cl)c1,0.21,0.51
CC(C)(C)c1cc(CCC(=O)N2CCC2)cc(C(C)(C)C)c1O,0.39,0.02
O=C1c2oc3ccccc3c(=O)c2C(c2ccc(O)cc2)N1c1nccs1 (centres undefined),0.02,0.12
Cn1cc(-c2ccccc2C(N)=O)c(=O)c2cc(Cl)ccc21,-0.02,0.28
COc1ccc(/C(C)=N/NC(=O)c2ccc(CSc3nncn3C)cc2)cc1,0.13,1.1
CN1CCC(=O)N([C@H](CSc2ccccc2)Cc2ccccc2)CC1,-0.84,0.01
CN(C)c1nc(N)nc(Nc2ccccc2C#N)n1,-2.1,1.6
CCOC(=O)[C@@H]1[C@H]2COc3ccc(Br)cc3[C@H]2N2C(=O)N(c3ccc(F)cc3)C(=O)[C@@]12C,2.8,0.7
N#Cc1ccc(OCC(=O)N2CCN(S(=O)(=O)c3cccs3)CC2)cc1,-0.31,0.31
CC(=O)NC1=NN(C(C)=O)C2(CCCCC2)S1,-0.22,1.1
Cc1ccc(NC(=O)/C=C/c2ccc3c(c2)OCO3)cc1S(=O)(=O)N1CCOCC1,-0.54,0.04
CC(=O)N(CCCc1ccc(C(C)(C)C)cc1)CCCN(C)C,-1.8,2.8
CC(=O)N1[C@H](Cc2ccccc2)C=C[C@]1(C)C(=O)NCCN1CCOCC1,-0.84,2.1
Cc1sc2ncnc(N)c2c1C,2.2,0.33
CCOc1ccccc1NC(=O)C1CCCN(C(=O)NCc2ccccc2)C1 (centres undefined),0.17,0.39
CCN(CC)S(=O)(=O)c1ccc(OC)c(NS(=O)(=O)Cc2ccccc2)c1,-1.7,0.02
CC1CCN(c2nc3c(c(=O)[nH]c(=O)n3C)n2CCCc2ccccc2)CC1,-0.66,0.57
CCN(CC)S(=O)(=O)c1ccc(N(C)C)c(NC(=O)CSCc2c(C)noc2C)c1,-1.6,0.15
O=C(Cn1cc(C(F)(F)F)cc(Cl)c1=O)NCc1ccccc1,2.5,1.5
CC(=O)NC(c1ccc(Cl)cc1)c1c(O)ccc2ccc(O)cc12 (centres undefined),0,0.04
C=CCn1c(SCC(=O)Nc2ccc3c(c2)OCO3)nc2ccccc2c1=O,1.1,0.32
Cc1cc(C)c2sc(NC(=O)c3ccc(N4C(=O)CCC4=O)cc3)nc2c1,0.03,2
Cc1ccc(C(=O)OCc2nnc(-c3ccccc3)o2)o1,-0.32,0.81
O=S(=O)(NCCc1cn2ccccc2n1)c1ccc(F)c(C(F)(F)F)c1,0.39,0.05
CCN(CC)Cc1c(O)ccc2c(-c3ccccc3)cc(=O)oc12,-0.69,0.51
Cc1ccc2[nH]c3c(=O)n(N)c(=O)[nH]c3c2c1,-0.44,0.5
Cc1nc(-c2ccc(Cl)cc2)sc1C1(C)CC(c2c(Cl)cccc2Cl)=NO1 (centres undefined),-0.4,0.18
CC(C)CCNC(=O)c1cccc(S(=O)(=O)N2CCc3ccccc32)c1,0.46,0.23
CCNc1nc(NCC)nc(OCCNS(=O)(=O)c2ccccc2)n1,0,0.33
CCCn1ncc(CN2CCC(Oc3ccc(C(=O)N4CCCC4)cc3)CC2)c1C,1,0.15
Cc1cccnc1NC(=O)c1ccc(Cl)c(S(=O)(=O)N2CCCCC2)c1,0.03,0.94
CCOC(=O)c1c(C)[nH]c(C(=O)N(C)Cc2cccc(OC)c2OC)c1C,0.04,0.51
O=C(CN1C(=O)CCC1=O)Nc1ccc(Br)cc1,0.98,0.03
CC(=O)N(C1=C(O)c2ccccc2C(=O)C1=O)C1CCCCC1,-0.17,0.96
Cc1ccc(C(=O)NCCNC(=O)c2ccco2)cc1C,0.63,1.4
Cc1nn(CC(=O)N2CCOCC2)c(=O)c2nn(-c3ccccc3)c(C)c12,-0.35,2
CCn1cc(C2=NOC(C(=O)O)C2)c(C)n1 (centres undefined),0.23,1.7
O=c1c(Cc2ccc(Cl)cc2)c(O)ccn1Cc1ccccc1,-0.16,0.74
Cc1cccc(N(CC(=O)NCCSCc2ccccc2)S(C)(=O)=O)c1C,0.95,0.77
c1ccc(COn2c(-c3ccccc3)nc3c2CCc2nonc2-3)cc1,1.8,0.64
Cc1ccc(NC(=O)CSc2nnc(-c3ccncc3)s2)cc1,0.29,0.74

Next section:
SMILES,KCNQ2 enhance baseline,KCNQ2 enhance
CN(C)CCCCOc1cccc(Br)c1,-1.1,1.3
Cc1cc(O)c(/C=N/c2ccccn2)c(=O)o1,0.2,0.16
CCOc1ccc2nc(Cl)c(C3CC(c4ccccc4)=NN3C(=O)c3ccco3)cc2c1 (centres undefined),0.96,1
O=C(NNC(=O)c1ccccc1[N+](=O)[O-])c1csc(N2CCOCC2)n1,0.65,1.4
CCOc1ccc2[nH]c(=O)c(CN(Cc3cccs3)Cc3nnnn3C(C)(C)C)cc2c1,-1.2,0.02
CCOc1ccc(/C=N/NC(=O)c2ccccc2NC(=O)c2ccc(OC)cc2)cc1,0.67,0.94
CCc1c(C(=O)Nc2ccccc2)c(C)[nH]c(=S)c1C#N,0.15,0.57
CCN(CC)S(=O)(=O)c1csc(C(=O)NCc2ccccc2)c1,-0.75,1.7
COc1ccc(NC(=O)c2cc3ccccc3o2)cn1,-0.14,0.78
Cc1cccc(CCNC(=O)CCNS(=O)(=O)c2cc(Br)cnc2N)c1,-0.3,2.1
CCOC(=O)C1CCCN(C(=O)C2CCN(C(=O)Nc3ccccc3)CC2)C1 (centres undefined),-0.92,3
COc1ccc(N2CC(C(=O)Nc3ccc(S(=O)(=O)Nc4nccs4)cc3)CC2=O)cc1 (centres undefined),-0.13,0.62
CCC(=O)NC(NC(=S)Nc1c(C)n(C)n(-c2ccccc2)c1=O)C(Cl)(Cl)Cl (centres undefined),0.61,0.01
Nc1nc(-c2ccco2)nn1C(=O)c1ccc([N+](=O)[O-])cc1,-2.6,1.5
Cc1c(CN2CCC(n3nccc3NC(=O)C3CCOC3)CC2)[nH]c2ccccc12 (centres undefined),0.77,0.76
Fc1ccc2nc(Nc3nc4c(F)cc(F)cc4s3)sc2c1,-0.13,4.9
COCCCN(C(=S)Nc1cccc(Cl)c1)C(C)c1ccncc1 (centres undefined),0.03,0.58
COc1ccc(NC(=O)CCc2nc3ccccc3[nH]2)cc1,-1.3,0.44
CC1CN(C(=O)Cn2c(C(F)(F)F)nc3ccccc32)CC(C)O1 (centres undefined),-1.1,0.39
CCc1nccn1CCC(=O)NC1CC(C)(C)Cc2c1cnn2-c1cccc(F)c1 (centres undefined),0.5,0.59
COc1ccc(NC(=S)N2CCN(c3ccc([N+](=O)[O-])cc3)CC2)cc1OC,0.54,0.03
COc1cccc(NC(=S)NNC(=O)C(C)n2nc(C)c([N+](=O)[O-])c2C)c1 (centres undefined),-1,0.02
